# BasE inh – BasE siderophore enzyme inhibitors, primary screen, biochemical, Acinetobacter baumannii ATCC 17978, fluorescence polarization | purified BasE, fluorescence polarization binding displacement | inhibition, % (concentration not given with the values) | 0.1% of 84,000 active;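 active = both replicates above 25% with normal brightness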;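 note: 0% = negative plate control signal and 100% = positive plate control signal; stock transfer was 100 nL into about 30 µL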
# LANA-nucl inh – inhibitors of KSHV LANA-nucleosome binding, primary screen, biochemical, fluorescence polarization, FITC-LANA1-23, chicken nucleosomes | FITC-LANA1-23 / chicken nucleosome fluorescence polarization; stronger effect = lower value | z-score (test concentration not listed) | 0.3% of 51,000 active | AID 720717, 2013;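 active = both repeat wells score below -2 in polarization z-score versus plate sample wells, excluding overly bright wells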;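 note: 100 nL library stock added to about 30 µL; numbers are from one replicate; some results filed as inactive read as strong as hits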
#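 Assay system: purified chicken nucleosomes with FITC-labelled LANA N-terminal peptide (1-23) / Probe or stimulus: 50 nM FITC-LANA1-23 probe / Compound dosing: pin-transferred compound, 100 nL / Times: compound with peptide–nucleosome mix 10–45 min at room temperature / Technique: fluorescence polarization, 480 nm excitation, 535 nm parallel and perpendicular emission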
# * hit, by the source's call; · = not tested or not shown. Not all compounds are listed, so the mix of outcomes need not match the whole.
SMILES,BasE inh,LANA-nucl inh
O=C1CCC(=O)N1c1ccc(S(=O)(=O)N2CCN(c3nccc(C(F)(F)F)n3)CC2)cc1,-0.4,0.63
COc1cc(/C=C2\C(=O)NC(=O)N(C(C)(C)C)C2=O)cc(OC)c1O,1.5,0.49
N/C(CC(=O)Nc1cccc(C(F)(F)F)c1)=N/O,2.8,·
NC(=S)N1CCN=C1c1ccccc1,0.9,0.63
COc1cccc(CNC(=O)c2cnn(-c3cccc(F)c3)c2-n2cccc2)c1OC,1.8,·
O=C(O)CC1S/C(=N\N=C2CCCCCCC2)N(c2ccccc2)C1=O (configuration not stated),-2.4,1.9
CCOC(=O)c1c(NC(C)=O)sc2c1CCCC2O (configuration not stated),0.1,-0.54
Cn1ccnc1CSc1ncccc1C(=O)O,-0.3,·
CCOc1ccccc1Nc1nc(N)nc(CN(C)C2CCCCC2)n1,-2.1,0.025
CCO[C@@H]1O[C@H](C(COCc2ccccc2)OCc2ccccc2)[C@@H](OCc2ccccc2)C1O (some centres not stated),-1.8,-1.1
CN(C)c1ccc(C(CNC(=O)C2CCCCC2)N2CCOCC2)cc1 (configuration not stated),-1.3,-0.11
O=C(/C=C/c1ccc(-c2cccs2)s1)Oc1ccc(Cl)cc1,-3.4,·
CC(C)NC(=S)N1CCN(C/C=C/c2ccccc2)CC1,1.9,0.003
c1ccc(CCSc2nnc(-c3cccs3)o2)cc1,0.3,-0.41
Cc1ccc(/C=C/C(=O)Oc2ccc(-c3ccc(C#N)cc3)cc2)o1,1.2,·
Cc1onc(-c2ccccc2)c1C(=O)N(Cc1ccccc1)C(C)C,·,-0.91
COc1ccc(C2C3=C(CC(C)(C)CC3=O)Nc3nc(SCCN4CCOCC4)[nH]c(=O)c32)cc1OC (configuration not stated),3.0,0.21
CCC(Sc1nc2ncnc(N)c2[nH]1)C(=O)O (configuration not stated),-0.1,-1.6
CCOc1ccccc1NC(=O)c1ccc(OCC(=O)N2CCOCC2)c(OC)c1,0.1,·
COc1ccc(CNc2ncc(C#N)cn2)cc1,·,-0.52
COC(=O)c1sccc1NS(=O)(=O)c1ccc(F)cc1F,0.1,·
C(=NN1CCN(C2c3ccccc3-c3ccccc32)CC1)c1ccncc1,3.0,-0.017
O=C(N/N=C/c1cccc(C(F)(F)F)c1)c1ccccn1,-0.4,·
Cc1cc(S(N)(=O)=O)ccc1OCC(=O)O,-0.9,-1.1
Cc1cc2c(n1-c1ccc(C(=O)NCCc3cccs3)cc1)CCCC2,0.6,-0.097
CCOC(=O)Nc1nc2ccc(OC)cc2s1,-1.1,·
FC(F)(F)c1cnc(SCc2nc3ccccc3o2)c(Cl)c1,0.5,·
CCOc1ccc(NC(=O)NC(=O)N(C(C)C)S(C)(=O)=O)cc1,1.9,·
CC(=O)OC[C@H]1O[C@@H](Oc2ccccc2)[C@H](OC(C)=O)[C@@H](OC(C)=O)[C@H]1OC(C)=O,1.7,-0.26
CCN1C(=O)S/C(=C\c2cccc(Cl)c2)C1=O,·,-0.7

# Whole records from above. Order of screens: BasE inh	LANA-nucl inh
# CC(C)NC(=S)N1CCN(C/C=C/c2ccccc2)CC1 as listed: 1.9	0.003
# CCOc1ccc(NC(=O)NC(=O)N(C(C)C)S(C)(=O)=O)cc1 as listed: 1.9	·
# c1ccc(CCSc2nnc(-c3cccs3)o2)cc1 as listed: 0.3	-0.41
# CCO[C@@H]1O[C@H](C(COCc2ccccc2)OCc2ccccc2)[C@@H](OCc2ccccc2)C1O (some centres not stated) as listed: -1.8	-1.1
# Cc1onc(-c2ccccc2)c1C(=O)N(Cc1ccccc1)C(C)C as listed: ·	-0.91

# Next part
SMILES,BasE inh,LANA-nucl inh
O=C(COc1ccccc1)Nc1ccn(Cc2ccccc2)n1,2.8,0.15
FC(F)(F)c1ccc(-c2noc(-c3ccc(Cl)nc3)n2)cc1,·,0.12
Cc1ccc(CSCc2ccc(C(=O)O)o2)cc1,0.3,·
CC(C)C(=O)Nc1ccc2[nH]c(=O)[nH]c2c1,-1.4,-0.0085
O=C(CNC(=O)c1ccccc1)NC1CCCC1,3.3,·
COc1cccc(C(=O)NCCn2c(C)cc3ccccc32)c1,0.4,-0.44
O=C(C1=NN(c2ccccc2)C(=O)CC1)N1CCN(c2ncccn2)CC1,1.7,·
CC(=O)Nc1ccc(/C=N/NC(=O)CN2CCSCC2)cc1,-1.6,0.46
CC(OC(=O)c1ccncc1)C(=O)NC1CCCC1 (configuration not stated),1.3,·
CCOC(=O)C1=C(C)NC(=O)NC1/C=C/c1ccccc1 (configuration not stated),-0.3,0.41

# Not a retest: two of the compounds above.
SMILES,BasE inh,LANA-nucl inh
CC(OC(=O)c1ccncc1)C(=O)NC1CCCC1 (configuration not stated),1.3,·
CCOC(=O)C1=C(C)NC(=O)NC1/C=C/c1ccccc1 (configuration not stated),-0.3,0.41

# Following part:
SMILES,BasE inh,LANA-nucl inh
CCc1c(C)nc2nc[nH]n2c1=O,1.4,·
CCn1c(Cc2ccccc2)nnc1SC(C#N)Cc1ccc(C)cc1 (configuration not stated),2.0,·
CCN(C(=O)c1cc2c(C)nc3ccccc3c2o1)c1cc(Cl)ccc1OC,-0.2,-0.029
CNC(=O)NC(=O)CSc1nnc(-c2ccccc2)o1,-0.6,·
CC(C)(C)NC(=O)COc1ccc2oc3c(c2c1)CCCC3,-2.5,·
CN1C(=O)C2C(c3ccc(N(C)C)cc3)NN(Cc3ccccc3)C2C1=O (configuration not stated),-0.5,0.5
CCN(C(=O)CN1C(=O)COc2ccccc21)c1nc2c(C)cccc2s1,0.6,·
COCCNC(=O)c1ccccc1NC(=O)c1cccc(C)c1,1.2,-0.16
CCC(=O)Nc1ccc2nc(C)[nH]c2c1,4.6,0.069
CO/N=C(/C(=O)N[C@@H]1C(=O)N2C(C(=O)[O-])=C(C[N+]3(C)CCCC3)CS[C@H]12)c1csc(N)n1,-0.3,-0.67
Cc1c(C(=O)N2CCN(S(=O)(=O)c3ccccc3)CC2)oc2ccc(Br)cc12,3.4,·
O=C(C1=Cc2sc3c(c2CS1)CCCC3)N1CCC2(CC1)OCCO2,-2.2,0.67
COc1ccc2nc(SC)nc(C)c2c1,-1.2,0.1
Nc1nnc(CCC(=O)O)c(=O)n1N,5.7,·
c1ccc2sc(SCSc3nnc4sc5ccccc5n34)nc2c1,1.4,-0.16
CCOC(=O)c1sc2c(c1O)c(=O)n(-c1ccccc1)c(=S)n2-c1ccccc1,-0.3,·
CCOC(=O)c1nn(-c2ccccc2)c2nc(Nc3ccc(C)cc3)cc(=O)n12,-2.6,·
O=C(/C=C/c1ccco1)Nc1ccc2oc(-c3ccccc3)nc2c1,-1.4,0.3
CC(C)c1nc(=S)c2ccccc2[nH]1,-2.2,0.53
CC(O)CNCc1ccc2c(c1)OCO2 (configuration not stated),-0.7,-1.3
CCn1c(C(=O)NC2CCCC2)cc2sc(Cl)cc21,4.5,-0.22
O=C(Oc1cccc(Cl)c1Cl)c1ccncc1,4.3,·
O=C(CC1NC2CCCCC2NC1=O)Nc1cccc(C(F)(F)F)c1 (configuration not stated),-0.8,-0.47
Cc1ccc(Nc2nc(Nc3ccc(C)cc3)nc(Sc3nncn3C)n2)cc1,-0.3,-0.35
Cc1cc(C)n(-c2ccc(COC(=O)Cc3n[nH]c(=O)c4ccccc34)cc2)n1,0.8,·
CC1=C/C(=N\NC(=S)Nc2cc(C)ccc2C)CC1,0.6,·
CCCn1c(N)c(C(=O)COC(=O)c2c3c(nc4ccccc24)CCC3)c(=O)[nH]c1=O,-1.9,·
COc1cc(/C=C/C(=O)Nc2ccc3nc(N4CCN(c5ncccn5)CC4)cc(C)c3c2)cc(OC)c1OC,2.6,0.33
NNC(=O)CC1=Nn2c(nnc2-c2ccc(Cl)cc2)SC1,-4.2,·
O=c1[nH]ccc2nc(N3CCOCC3)ncc12,0.5,-0.077
Cn1cccc1C(=O)Nc1nccs1,-0.1,·
N#CCCn1cc(/C=N/O)c(-c2ccc(Br)cc2)n1,1.7,-0.22
COc1ccc(-c2nc3ccc4ccccc4c3c3c2CCC3)cc1,0.8,·
O=C(CN1CCN(C/C=C/c2ccccc2)CC1)Nc1ccc2c(c1)OCCCO2,0.0,·
CCNS(=O)(=O)c1ccc(NC(=O)c2ccc(Cn3cc(Br)cn3)o2)cc1,0.2,·
COc1ccc(C(=O)OCC(=O)NC23CC4CC(CC(C4)C2)C3)c(O)c1,-4.0,·
Cc1ccc2cc(CCNC(=O)C(C)(C)C)c(=O)[nH]c2c1,-0.9,-0.22
CCN(Cc1ccccc1)C(=O)c1ccc(S(=O)(=O)N(C)C)cc1,-1.1,·
CCN1C(=O)CS/C1=C(\C#N)S(=O)(=O)c1ccccc1,-16,·
Cc1oc(C(=O)O)cc1COc1ccc2c3c(c(=O)oc2c1)CCCC3,-0.1,·
N#C/C(=C/c1cccs1)C(N)=S,-0.5,-0.51
CCOC(=O)c1c(NC(=O)C(F)(F)F)n[nH]c1N,3.5,·
CN(c1ccc(C(=O)NC2CCCCC2)cc1)S(C)(=O)=O,2.5,-0.66
CCN(Cc1ccncc1)Cn1nc(-c2ccncc2)n(CCOC)c1=S,1.4,·
CN(C)c1ccc(C(=O)N2CCN(c3ccccc3)CC2)cc1,-0.6,-0.23
O=C(Nc1ccc(N2C(=O)C3C4C=CC(C4)C3C2=O)cc1)Nc1ccccn1 (configuration not stated),0.1,-0.22
COc1cc(C=C(C#N)C#N)ccc1OC(=O)c1ccco1,-1.2,0.29
Cc1nn(CC(=O)c2ccc3c(c2)OCCO3)c(=O)c(C#N)c1C,-2.8,·
CCOC(=O)c1cc(C)[nH]c(=O)n1,5.8,-0.94
COc1cc2ccccc2cc1C(N)=O,0.7,·

# Next section (five carried over from the part before).
SMILES,BasE inh,LANA-nucl inh
O=C(Nc1ccc(N2C(=O)C3C4C=CC(C4)C3C2=O)cc1)Nc1ccccn1 (configuration not stated),0.1,-0.22
COc1cc(C=C(C#N)C#N)ccc1OC(=O)c1ccco1,-1.2,0.29
Cc1nn(CC(=O)c2ccc3c(c2)OCCO3)c(=O)c(C#N)c1C,-2.8,·
CCOC(=O)c1cc(C)[nH]c(=O)n1,5.8,-0.94
COc1cc2ccccc2cc1C(N)=O,0.7,·
c1ccc(CSc2nnc(-c3ccccc3)n2Cc2ccco2)cc1,-1.7,·
Cc1cc(S(=O)(=O)N2CCC(c3nc4c(nnn4Cc4ccc(F)cc4)c(=O)[nH]3)CC2)ccc1-n1cnnn1,-0.2,-0.8
CN=c1scc(-c2ccc3c(c2)NC(=O)CO3)n1/N=C/c1ccc(C#N)cc1,6.0,·
CCC(C)(C(=O)NC1CCCC1)N(C(=O)c1ccccn1)c1ccc(C)cc1 (configuration not stated),0.9,0.2
CCc1cc(-c2nn(CN3CCOCC3)c(C)c2-c2nc3ccccc3n2C)c(O)c(CN2CCOCC2)c1O,1.9,·
CC1=C(C(N)=O)C(c2ccccc2)n2nc(-c3ccccc3)nc2N1 (configuration not stated),-1.4,·
O=C(NCC(=O)N1CCN(Cc2ccccc2)CC1)c1ccc(Cl)c(Cl)c1,-0.6,·
CC(C(=O)O)N1C(=O)/C(=C/c2ccco2)SC1=S (configuration not stated),2.9,-0.62
Cc1nnc2n1NC(c1ccccc1)C(C(=O)NCc1ccco1)S2 (configuration not stated),-1.6,-0.79
NN1C(=O)c2ccccc2NC1C1CC=CCC1 (configuration not stated),-2.0,-0.4
Cc1nn(-c2ccc(F)cc2)c(-n2cccc2)c1C(=O)NCCc1cccs1,-3.6,0.075
CCOC(=O)c1c(C)[nH]c(C)c1S(=O)(=O)NCCc1ccccc1,2.6,·
CCc1ccccc1N(C)C(=O)c1noc2c1CCCC2,1.3,·
Cc1cc(N2CCCC2)ccc1NC(=O)COc1ccc(Cl)cc1,1.3,·
CCOc1ccc(NC(=O)C(C)NS(=O)(=O)c2ccc(C)cc2)cc1 (configuration not stated),3.5,0.38
C/C=C(\C=C\[C@@H](C)C/C=C/CC/C=C/C=C\C[C@@H](OC)/C(C)=C\C=C(C)C)CC(=O)O,·,-0.33
Cc1nc(/N=C/N(C)C)c(Br)cc1Br,·,0.01
NC(=O)COc1coc(CN2CCc3ccccc3C2)cc1=O,1.4,1.9
O=C(O)CCn1ccnc1,-1.0,1.1
CC(C)CNC(=O)C1CCN(C(=O)c2ccc(F)cc2)CC1,2.2,·
COC(=O)c1ccc(C(=S)NCC(OC)OC)cc1,3.9,·
Cc1ccc(/C=C2/N=C(c3ccccc3)NNC2=O)cc1,-0.3,-0.33
CC(C)(C)N(Cc1ccccc1)C(=O)c1ccco1,-3.1,-0.14
OC(COc1ccc2oc3ccccc3c2c1)CN1CCN(Cc2ccccc2)CC1 (configuration not stated),0.9,·
Cc1nn(-c2ccccc2)c2c1nc(CCC(=O)NCC1CCCO1)c(=O)n2C (configuration not stated),26,0.88
CCOc1cc(C(F)(F)F)c(C(=O)N(C)Cc2ccc(Cl)cc2)cn1,·,0.12
S=c1[nH]nc(-c2ccncc2)n1-c1ccc2c(c1)OCO2,5.8,0.52
Nc1nncn1C(=O)CCCOc1ccccc1,-6.0,1.6
CSc1cc(-c2nccs2)[nH]n1,2.1,·
COc1ccc(C2(O)CCN(CCCCOc3ccccc3)CC2)cc1,-2.7,-0.17
COC(=O)c1ccc2c(=O)n(CC3CCCO3)c(SCc3coc(-c4cccs4)n3)nc2c1 (configuration not stated),-0.4,·
Nc1cccc2c1C(=O)N(C(=O)c1ccc3c(c1)S(=O)(=O)N=C1CCCCCN13)C2=O,2.6,·
N#Cc1ccccc1Oc1ccccc1F,·,0.67
Cn1c(=O)c2c(ncn2CCC(=O)NCCc2ccc(F)cc2)n(C)c1=O,1.0,0.009

# Screening data (PubChem BioAssay)
